# Assay outcomes deposited in PubChem by Broad Institute.
# Vaccinia stage = blocks a specific stage of Vaccinia orthopoxvirus infection | Vaccinia-infected cells, mCherry/Venus stage reporter fluorescence; hits give low values; some inactives read as strong as hits | actives 0.01% (n = 89,000) | activity change (mCherry), % (no concentration beside the values);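 active = mCherry past -33% and 40 or more points under the early reporter, replicates agreeing; inconclusive = past -33% without that gap or agreement; tested in A549 cells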;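 note: scaled between vehicle wells and reference inhibitor wells; 23 nL library stock went into each well; one replicate is shown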
# Vaccinia stage Venus = further read-out of Vaccinia stage, marked with its call; activity change (Venus), %; measured here: Venus reporter, other viral stage;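 negative = less Venus signal; first of two replicates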
# * marks the source's active call; other numbers are inactive results; ? = inconclusive; / = no result given. An excerpt; rates above refer to the full screens.
SMILES,Vaccinia stage,Vaccinia stage Venus
COc1ccc(-c2ccc([C@H]3[C@@H](CO)N4C(=O)CN(C(=O)C5CCOCC5)C[C@@H]34)cc2)cc1,0,0
Cc1ccc(-c2ccc3c(c2)O[C@@H](CN(C)C)[C@@H](C)CN([C@H](C)CO)S3(=O)=O)cc1,-5,-9
O=C(Nc1ccc2c(c1)[C@@H]1C[C@@H](CC(=O)N3CCc4ccccc4C3)O[C@H](CO)[C@@H]1O2)NC1CCCC1,-1,0
O=C(Nc1ccccc1F)N1CC(=O)N2[C@H](C1)[C@@H](c1ccc(C#Cc3ccc(F)cc3)cc1)[C@@H]2CO,?,/
O=C(CC1CC1)N1CC2(C1)[C@H](c1ccccc1)[C@@H](CO)N2S(=O)(=O)Cc1ccccc1,-8,-3
CCCN(C)C[C@H]1Oc2cc(C#Cc3ccccc3OC)ccc2S(=O)(=O)N([C@H](C)CO)C[C@H]1C,?,/
Cc1ccccc1S(=O)(=O)N1C[C@@H](O)COC[C@H]2O[C@@H](CC(=O)O)CC[C@@H]21,4,-5
COc1ccc(-c2ccc([C@H]3[C@@H](CO)N4CCCCN(CC5CCOCC5)C[C@H]34)cc2)cc1,-3,-1
Cc1ccccc1-c1ccc([C@H]2[C@H]3CN(C(=O)c4ccncc4)CC(=O)N3[C@H]2CO)cc1,3,1
CCCC(=O)N1C[C@@H]2[C@H](c3ccccc31)[C@@H](CO)N2C(=O)Nc1ccccc1,15,6
C/C=C/c1cccc(-c2nc(C(=O)NCc3ccccc3)cc3c2[C@H](CCO)N([S@@](=O)C(C)(C)C)C3)c1,-10,11
Cc1ccc(S(=O)(=O)N(C)C[C@@H]2Oc3c(NC(=O)C4CCOCC4)cccc3C(=O)N([C@H](C)CO)C[C@H]2C)cc1,9,4
N#Cc1ccc(-c2ccc([C@H]3[C@H](CO)N4CCCCN(C(=O)Nc5ccc(F)cc5)C[C@@H]34)cc2)cc1,?,/
C[C@@H]1CN([C@@H](C)CO)C(=O)Cc2cc(NC(=O)Cn3cnnn3)ccc2O[C@@H]1CN(C)Cc1ccc2c(c1)OCO2,-1,2
C[C@H]1CN([C@@H](C)CO)C(=O)c2cc(C#Cc3ccc(F)cc3)cnc2O[C@@H]1CN(C)Cc1ccccn1,?,/
Cc1ccc(-c2cnc3c(c2)C(=O)N([C@H](C)CO)C[C@H](C)[C@@H](CN(C)C(=O)c2cccc(F)c2)O3)cc1,-27,-13
COc1ccc(NC(=O)N(C)C[C@@H]2Oc3ccc(NC(=O)Cn4cnnn4)cc3CC(=O)N([C@H](C)CO)C[C@@H]2C)cc1,13,14
C[C@@H]1CN([C@H](C)CO)C(=O)c2cc(NC(=O)Cn3cnnn3)ccc2O[C@@H]1CN(C)C,16,4
COCC(=O)N1CC(=O)N2[C@H](C1)[C@H](c1ccc(C#CC3CCCC3)cc1)[C@@H]2CO,-18,-18
C[C@H](CO)N1C[C@H](C)[C@H](CN(C)S(=O)(=O)c2ccccc2)Oc2ncc(-c3cccc(F)c3)cc2C1=O,-7,1
CCC(=O)N1C[C@@H]2[C@H](c3ccccc31)[C@@H](CO)N2Cc1cc(F)ccc1F,6,1
COc1ccc(S(=O)(=O)Nc2cccc3c2O[C@H](CN(C)C(=O)Nc2c(C)noc2C)[C@H](C)CN([C@@H](C)CO)C3=O)cc1,19,13
CC=Cc1ccc2n(c1=O)C[C@@H]1[C@@H](CO)[C@H](C(=O)NCc3ccccn3)[C@H]2N1CCC (mixture of isomers),5,3
C[C@H]1CN([C@@H](C)CO)C(=O)c2cc(NS(=O)(=O)c3cn(C)cn3)ccc2O[C@H]1CN(C)Cc1ccc(C(=O)Nc2ccccc2N)cc1,33,20
C[C@@H]1CN([C@@H](C)CO)C(=O)c2cccc(NS(=O)(=O)c3cccs3)c2O[C@@H]1CN(C)CC1CC1,6,3
CC(C)CC#Cc1ccc2c(c1)O[C@@H](CN(C)C(=O)c1ccccc1)[C@H](C)CN([C@H](C)CO)S2(=O)=O,?,/
COc1ccc(S(=O)(=O)Nc2ccc3c(c2)C(=O)N([C@@H](C)CO)C[C@@H](C)[C@@H](CN(C)C(=O)NC(C)C)OCCCC[C@H](C)O3)cc1,33,19
O=C(c1ccc(F)cc1)N1CC[C@@H]2[C@H](CO)Nc3ccc(-c4ccccc4F)cc3[C@@H]21,-24,-17
O=C(c1ccccc1)N1C[C@H]2[C@@H](c3ccccc31)[C@@H](CO)N2C(=O)c1ccccn1,4,3
CCN(C[C@@H]1[C@@H](c2ccccc2)[C@@H](CO)N1C(=O)COC)S(C)(=O)=O,11,24
CCCNC(=O)Nc1ccc2c(c1)C(=O)N(C)C[C@H](OC)[C@H](C)CN(C(=O)c1ccccc1F)[C@@H](C)CO2,19,17
COc1cccc(NC(=O)N(C)C[C@@H]2Oc3ncc(C#Cc4cccnc4)cc3C(=O)N([C@H](C)CO)C[C@@H]2C)c1,-18,-18
CCC(=O)Nc1ccc2c(c1)C(=O)N(C)C[C@H](OC)[C@@H](C)CN(C(=O)C1CC1)[C@H](C)CO2,2,6
CO[C@@H](CCO)[C@@H](O)c1ccc(O)c(F)c1,17,10
O=C(c1cccc(F)c1)N1CC[C@H]2[C@H](CO)Nc3ccc(-c4ccc(F)cc4)cc3[C@H]21,-9,-8
COCC(=O)N(C)C[C@H]1Oc2cc(Br)ccc2S(=O)(=O)N([C@H](C)CO)C[C@H]1C,29,9
Cc1noc(C)c1NC(=O)Nc1ccc2c(c1)CC(=O)N([C@H](C)CO)C[C@H](C)[C@H](CN(C)S(=O)(=O)c1ccc(Cl)cc1)O2,9,17
C[C@H]1CN([C@@H](C)CO)C(=O)c2cc(C#CC3(O)CCCC3)cnc2O[C@H]1CN(C)C(=O)CN(C)C,21,12
CCCNC(=O)N(C)C[C@H]1Oc2cc(C#Cc3ccccn3)ccc2S(=O)(=O)N([C@@H](C)CO)C[C@H]1C,-6,-2
CN(C)CC(=O)N1CC2(C1)[C@H](c1ccccc1)[C@@H](CO)N2C(=O)C1CCC1,6,5
Cc1ccccc1-c1ccccc1[C@@H]1[C@@H](C#N)N(C(=O)c2ccccc2)[C@H]1CO,-5,-8
Cc1noc(C)c1S(=O)(=O)Nc1ccc2c(c1)CC(=O)N([C@H](C)CO)C[C@@H](C)[C@@H](CN(C)C(=O)Nc1cccc3ccccc13)O2,4,15
C[C@@H]1CN([C@@H](C)CO)S(=O)(=O)c2ccc(C#Cc3ccccc3)cc2O[C@@H]1CN(C)C(=O)c1ccccn1,?,/
O=C([C@H]1[C@H](CO)[C@H]2Cn3c(cccc3=O)[C@H]2N1C(=O)C1CCCC1)N1CCOCC1,-1,-3
C[C@@H]1CN([C@H](C)CO)C(=O)Cc2cc(NC(=O)NC3CCCCC3)ccc2O[C@@H]1CN(C)C(=O)Nc1cccc2ccccc12,18,12
CN(C[C@@H]1N[C@H](CO)[C@@H]1c1ccc(-c2ccccc2)cc1)C(=O)C1CCC1,-18,-4
O=C(C[C@H]1CC[C@@H](NC(=O)Nc2cc(F)ccc2F)[C@@H](CO)O1)NCc1ccc2c(c1)OCO2,7,16
COc1ccccc1CNC(=O)C[C@@H]1C[C@H]2c3cc(NS(=O)(=O)c4ccc(F)cc4)ccc3O[C@H]2[C@@H](CO)O1,-6,-4
CCNC(=O)[C@@H]1[C@@H](CO)[C@@H]2Cn3c(ccc(-c4ccccc4)c3=O)[C@H]1N2C(=O)C1CC1,13,14
COc1ccc(CN(C)C[C@@H]2Oc3c(NS(=O)(=O)c4ccc(OC)cc4)cccc3C(=O)N([C@@H](C)CO)C[C@H]2C)cc1,9,10
CO[C@@H]1CN(C)C(=O)c2cc(NC(C)=O)ccc2OC[C@@H](C)N(Cc2ccc(F)cc2)C[C@@H]1C,-7,-9
C[C@@H]1CN([C@H](C)CO)C(=O)c2cc(NC(=O)Nc3cccc4ccccc34)ccc2O[C@@H](C)CCCCO[C@H]1CN(C)Cc1ccc(C(=O)O)cc1,20,10
C[C@@H]1CN([C@H](C)CO)C(=O)Cc2cc(NC(=O)CCCCCC(=O)Nc3ccccc3N)ccc2O[C@@H]1CN(C)C(=O)Nc1ccccc1,15,9
CC(C)NC(=O)N(C)C[C@@H]1Oc2c(NS(=O)(=O)c3ccccc3)cccc2C(=O)N([C@H](C)CO)C[C@H]1C,3,-3
CCNC(=O)[C@@H]1[C@@H](CO)[C@@H]2Cn3c(ccc(-c4ccc(OC)cc4)c3=O)[C@@H]2N1Cc1ccccc1,-7,-2
COC(=O)C[C@H]1CC[C@@H]2[C@@H](COc3ccc(NC(=O)C4CCOCC4)cc3C(=O)N2C)O1,7,8
COCC(=O)N1CC[C@H]2[C@@H]1c1cc(-c3cccc(OC)c3)ccc1N(C)[C@H]2CO,4,-4
O=C(C[C@H]1C[C@@H]2c3cc(NS(=O)(=O)c4ccc(F)cc4)ccc3O[C@@H]2[C@@H](CO)O1)NCc1ccc(Cl)cc1,-34,-26
C[C@H](CO)N1C[C@H](C)[C@@H](CN(C)C(=O)Oc2ccccc2)OCc2ccccc2-c2ccccc2C1=O,12,5
COc1ccc(S(=O)(=O)Nc2ccc3c(c2)[C@@H]2C[C@@H](CC(=O)N(C)C)O[C@H](CO)[C@@H]2O3)cc1,14,17

# A section of the results above:
SMILES,Vaccinia stage,Vaccinia stage Venus
COc1ccc(CN(C)C[C@@H]2Oc3c(NS(=O)(=O)c4ccc(OC)cc4)cccc3C(=O)N([C@@H](C)CO)C[C@H]2C)cc1,9,10
CO[C@@H]1CN(C)C(=O)c2cc(NC(C)=O)ccc2OC[C@@H](C)N(Cc2ccc(F)cc2)C[C@@H]1C,-7,-9
C[C@@H]1CN([C@H](C)CO)C(=O)c2cc(NC(=O)Nc3cccc4ccccc34)ccc2O[C@@H](C)CCCCO[C@H]1CN(C)Cc1ccc(C(=O)O)cc1,20,10
C[C@@H]1CN([C@H](C)CO)C(=O)Cc2cc(NC(=O)CCCCCC(=O)Nc3ccccc3N)ccc2O[C@@H]1CN(C)C(=O)Nc1ccccc1,15,9
CC(C)NC(=O)N(C)C[C@@H]1Oc2c(NS(=O)(=O)c3ccccc3)cccc2C(=O)N([C@H](C)CO)C[C@H]1C,3,-3
CCNC(=O)[C@@H]1[C@@H](CO)[C@@H]2Cn3c(ccc(-c4ccc(OC)cc4)c3=O)[C@@H]2N1Cc1ccccc1,-7,-2
COC(=O)C[C@H]1CC[C@@H]2[C@@H](COc3ccc(NC(=O)C4CCOCC4)cc3C(=O)N2C)O1,7,8
COCC(=O)N1CC[C@H]2[C@@H]1c1cc(-c3cccc(OC)c3)ccc1N(C)[C@H]2CO,4,-4
O=C(C[C@H]1C[C@@H]2c3cc(NS(=O)(=O)c4ccc(F)cc4)ccc3O[C@@H]2[C@@H](CO)O1)NCc1ccc(Cl)cc1,-34,-26
C[C@H](CO)N1C[C@H](C)[C@@H](CN(C)C(=O)Oc2ccccc2)OCc2ccccc2-c2ccccc2C1=O,12,5

# (next part)
SMILES,Vaccinia stage,Vaccinia stage Venus
COc1ccc2c3c(n(C)c2c1)[C@@H](CO)N(C(=O)NC(C)C)CC31CCN(CC2CCOCC2)CC1,-5,-9
O=C(CC1CC1)N1CC(=O)N2[C@H](CO)[C@H](c3ccc(C#Cc4ccccc4)cc3)[C@H]2C1,-15,-15
C[C@@H]1CN([C@@H](C)CO)C(=O)c2cccc(NS(C)(=O)=O)c2O[C@@H]1CN(C)S(=O)(=O)c1cccs1,48,22
C[C@H](CO)N1C[C@H](C)[C@H](CN(C)C)Oc2ncc(-c3cccnc3)cc2C1=O,28,11
COc1ccc(S(=O)(=O)Nc2ccc3c(c2)C(=O)N([C@@H](C)CO)C[C@@H](C)[C@H](CN(C)S(=O)(=O)c2ccc(OC)cc2)O3)cc1,9,11
C[C@H]1CCCCO[C@H](CN(C)C(=O)c2ccccc2)[C@@H](C)CN([C@@H](C)CO)C(=O)c2cc(NC(=O)c3ccccc3)ccc2O1,-31,-24
COCC#Cc1cnc2c(c1)C(=O)N([C@H](C)CO)C[C@@H](C)[C@H](CN(C)Cc1ccc3c(c1)OCO3)O2,2,4
CO[C@@H]1CN(C)C(=O)c2cc(NC(=O)Nc3cc(F)ccc3F)ccc2OC[C@H](C)NC[C@@H]1C,-8,-1
CN1C(=O)c2cc(NC(=O)C3CCCC3)ccc2OC[C@@H]2O[C@@H](CC(=O)NCCc3ccncc3)CC[C@@H]21,11,9
C[C@H](CO)N1C[C@H](C)[C@@H](CN(C)Cc2ccncc2)Oc2ncc(C#CC3(O)CCCC3)cc2C1=O,5,4
O=C(C[C@H]1CC[C@@H]2[C@H](COC[C@@H](O)CN2Cc2cccc(Cl)c2)O1)NCc1cccc(F)c1,-23,-25
CN1C(=O)c2cc(NC(=O)Nc3ccccc3F)ccc2OC[C@@H]2O[C@H](CC(=O)NCc3ccc(-c4ccccc4)cc3)CC[C@@H]21,-29,-16
COc1ccc2c3c(n(C)c2c1)[C@H](CO)N(C(=O)Nc1ccc(F)cc1)CC31CCN(S(=O)(=O)c2cccc(F)c2)CC1,-35,-31
Cc1noc(C)c1NC(=O)Nc1ccc2c(c1)C(=O)N([C@H](C)CO)C[C@@H](C)[C@@H](CN(C)C(=O)NC(C)C)OCCCC[C@@H](C)O2,10,2
COc1ccc(CN(C)C[C@H]2Oc3ccc(NC(=O)Cn4cnnn4)cc3C(=O)N([C@@H](C)CO)C[C@@H]2C)cc1,14,7
C[C@H]1CN([C@@H](C)CO)C(=O)c2cc(NC(=O)Cc3ccccc3)ccc2O[C@H]1CN(C)S(=O)(=O)c1ccc(F)cc1,-11,-13
N#C[C@@H]1[C@@H](c2ccc(/C=C/c3ccccc3)cc2)[C@@H](CO)N1C(=O)Cc1ccccn1,20,13
COc1ccccc1NC(=O)N1CC(=O)N2[C@@H](CO)[C@H](c3ccc(C#CC(C)C)cc3)[C@@H]2C1,-9,-5
CC(C)NC(=O)Nc1ccc2c(c1)C(=O)N([C@H](C)CO)C[C@H](C)[C@H](CN(C)S(=O)(=O)c1cccs1)OCCCC[C@@H](C)O2,20,7
CS(=O)(=O)N1CC(=O)N2[C@H](CO)[C@@H](c3ccc(C#Cc4ccc(F)cc4)cc3)[C@H]2C1,-3,-4
COc1cccc(NC(=O)N[C@H]2CC[C@H](CC(=O)Nc3ccccc3)O[C@@H]2CO)c1,-10,-11
